# miR-21 reporter: miR-21 reporter, rising signal. HeLa miR-21 FLuc reporter, luciferase, 48 h. Potency, µM (doses to about 38.3 µM), for the others: top-dose reporter change, positive = more light. 340,000 tested, under 10 active. AID 2288; active = well fitted rising curve with a large enough effect; inconclusive = small, poorly fitted or top-dose-only effect; inactive = no such curve, though single readings can be large or run the other way;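 also: % of control where 0% means no effect; miR-21 action dims this reporter so a rising signal means less miR-21 action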
#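 HeLa miR-21-FLuc reporter line, endogenous miR-21; 2000 cells/well in DMEM/10% FBS; compound titration up to ~40uM final, 48 h, 37 degree Celsius; luciferase detection reagent, 15 min lysis, CCD luminescence.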
# Starred values were filed as active, the others as inactive; u = inconclusive. This is a subset (hit frequency here may not be typical).
canonical_smiles | miR-21 reporter
Cc1ccc(CNc2nc(-c3ccco3)nn2C(=O)c2ccccc2[N+](=O)[O-])cc1 | 6%
CCOC(=O)c1cc(S(=O)(=O)Nc2ccccc2OCC)[nH]n1 | 1%
Cc1cccc(OCCSc2nc3ccc(NC(=O)c4cccs4)cc3s2)c1 | u
CCC(C)NC(=O)Cn1c(=O)ccc2cc(S(=O)(=O)N3CCCC3)ccc21 (centres undefined) | 4%
Cc1csc2nc(-c3cccc(NC(=O)c4ccccc4F)c3)cn12 | -29%
COc1ccc(NC(=O)c2c(N)c(C(=O)c3ccc(C)cc3)n3ccccc23)cc1OC | -9%
COc1ccc(NC(=O)CCc2nnc3n(C)c(=O)c4sccc4n23)cc1 | 1%
Cc1c(-c2nc(-c3ccc4c(c3)[nH]c(=O)n4C)no2)cccc1[N+](=O)[O-] | 2%
CCCCC(=O)NC1(C(F)(F)F)C(=O)Nc2c1c(=O)[nH]c(=O)n2-c1ccc(C)c(C)c1 (centres undefined) | -2%
CC(C)c1ccc(NC(=O)CN2C(=O)COc3ccc(S(=O)(=O)N4CCCCC4)cc32)cc1 | 3%
O=C1c2[nH]nc(-c3ccccc3O)c2C(c2ccc(Cl)cc2)N1CCc1ccccc1 (centres undefined) | u
Cc1cccc(NC(=O)C2(C)Cc3ccccc3C(=O)O2)c1 (centres undefined) | -23%
CCC(=O)Nc1ccccc1-c1nc2ccccc2n(CC(=O)c2ccc(Cl)cc2)c1=O | 3%
O=C(Nc1ccc2oc(-c3ccc4ccccc4c3)nc2c1)c1ccccc1F | -14%
CCCn1c(=O)c2sccc2n2c(CCCC(=O)Nc3ccc(C)c(F)c3)nnc12 | 2%
CCOc1ccc(CNC(=O)c2ccc(NC(=O)N3CCSc4ncccc43)cc2)cc1OC | -4%
COc1cc(C(=O)N2CCC(c3nc4ccccc4o3)CC2)cc(OC)c1OC | -2%
COc1ccc(NC(=O)Cn2c(=O)n(-c3ccc(CC(=O)NCC4CCCO4)cc3)c(=O)c3ccccc32)c(OC)c1 (centres undefined) | -2%
CC(C)CCN1C(=O)c2ccccc2CC1(C)C(=O)NC1CCCCC1 (centres undefined) | -2%
CC(C)(Oc1ccc(Cl)cc1)C(=O)Nc1cccc(-c2cn3cccnc3n2)c1 | 2%
CCc1ccc(NC(=O)CSc2nc3ccccc3c(=O)n2CCNC(C)=O)cc1 | 0%
COC(=O)CC1Oc2ccc(C)cc2-n2cc(-c3ccc(C)cc3)nc21 (centres undefined) | -1%
CC(C)Cc1nn2c(=O)cc(COC(=O)c3ccccc3NC(=O)C3CCCCC3)nc2s1 | -9%
CSc1ccc(CCNC(=O)Cn2ncc3c(=O)oc4ccc(C)cc4c32)cc1 | 28%
COC(=O)c1ccc(Cl)cc1NC(=O)N1CC(C)Oc2ccccc21 (centres undefined) | 0%
COc1cccc(CNC(=O)c2cc3c(=O)n(C)c4ccccc4c3n2C)c1 | 0%
COc1ccc(C(=O)N2CCC(c3nc4ccccc4s3)CC2)cc1Cl | 14%
CC(C)(C)C1CCc2c(sc3nc(-c4cc5cc(Br)ccc5oc4=O)[nH]c(=O)c23)C1 (centres undefined) | -28%
COc1ccc(-c2noc(N3CCN(c4cccc(C)c4C)CC3)n2)cc1OC | 13%
CCOC(=O)c1ccccc1NC(=O)CN(c1ccccc1)S(=O)(=O)c1ccc(OCC)cc1 | 1%
O=C(Cn1c(=O)n(Cc2ccc(C(=O)NCc3ccc4c(c3)OCO4)cc2)c(=O)c2ccccc21)Nc1ccc(F)cc1F | -4%
CCOc1ccc(NCc2cccn2-c2nnc(N3CCC(C(=O)NCc4ccccc4Cl)CC3)s2)cc1 | 10%
CCOC(=O)c1cc2c(=O)n3ccccc3nc2n(CC2CCCO2)c1=NC(=O)c1ccc(C(C)(C)C)cc1 (centres undefined) | -3%
Cc1ccc(-n2ncc(C(=O)NCCN3CCc4ccccc4C3)c2C2CCNCC2)cc1C | -6%
O=C(NCc1ccccc1)c1ccc2c(c1)CCN2S(=O)(=O)c1ccc(Cl)cc1 | 10%
CCCn1c2ccccc2c2cnn(CC(=O)NCC3CCN(Cc4ccc(F)cc4)CC3)c(=O)c21 | -10%
CC(C)NC(=O)c1ccc(Cn2c(SCc3ccc(F)cc3)nc3cccnc32)cc1 | -18%
Cc1cccc(NC(=O)CSc2nc(=O)n(CCN3CCOCC3)c3c2CCC3)c1C | -4%
Cn1nc(C(=O)N2CCN(c3ccccc3F)CC2)c2c1-c1ccccc1SC2 | 0%
Cc1nc2sc(C(=O)N(C)c3ccccc3)c(NC(=O)c3ccccc3Cl)c2c(C)c1C | 6%
O=C(CS(=O)(=O)c1nc(-c2ccc(Cl)cc2)cn1-c1ccccc1)Nc1ccc(F)cc1F | 1%
CC(=O)Nc1cccc(C(=O)NCc2ccc3c(c2)CCN3C(C)=O)c1 | 5%
CC(=O)c1ccc(NC(=O)c2nc3ccccc3nc2N2CCCCC2)cc1 | 21%
CCOc1ccc(N(CC(=O)NCc2ccc(C)cc2)S(=O)(=O)c2c(C)noc2C)cc1 | -2%
CCOC(=O)c1cccc(NC(=O)CCc2c(C)nn(-c3ccc(N4CCOCC4)nn3)c2C)c1 | -1%
C=C(C)CSc1nc(-c2ccccc2)cc(-c2ccc(OC)cc2)c1C#N | -6%
O=C(CN1C(=O)COc2ccccc21)NCCc1ccc(Cl)cc1 | -2%
O=C(CSc1n[nH]c(-c2ccccc2Cl)n1)NCCCc1ccccc1 | 2%
O=C(c1ccc(F)cc1)n1nc(-c2ccccc2)nc1NCc1ccc(F)cc1 | -28%
Cc1c(Cl)ccc2sc(N3CCN(C(=O)C4CC4)CC3)nc12 | -11%
Cc1ccc(NC(=O)CCNS(=O)(=O)c2ccc3c(c2)CCN3C(=O)C2CC2)c(Cl)c1 | 4%
Cc1sc(-n2cccc2)c(C(C)NC(=O)Nc2ccccc2Cl)c1C (centres undefined) | u
O=C(Nc1ccc(F)cc1Cl)C1Cc2ccccc2N1C(=O)c1ccccc1 (centres undefined) | -1%
Cc1ccc(-c2noc(CN(C(=O)c3ccc(C(C)(C)C)cc3)C(C)C)n2)cc1 | -6%
CCc1ccccc1NC(=O)Cn1c(=O)n(-c2ccc(C)cc2)c(=O)c2c1c1cc(C)ccc1n2C | -3%
Cc1cccc(CNC(=O)CS(=O)(=O)c2cccc3nsnc23)c1 | 1%
Cc1cccc(NC(=O)CSc2nc3c(oc4ccccc43)c(=O)n2-c2ccc(F)cc2)c1 | -4%
COc1cccc(CN2C(=O)CN(C3CCCCC3)C(=O)C2c2ccc(OC(C)C)c(OC)c2)c1 (centres undefined) | 7%
CSc1nn(Cc2ccc(F)cc2)c(N)c1S(=O)(=O)c1ccc(Cl)cc1 | 29%
Cc1cc(OC(C)C(=O)Nc2c(C(=O)c3ccc(F)cc3)oc3ccccc23)ccc1Cl (centres undefined) | -1%

# Additional results.
canonical_smiles | miR-21 reporter
COc1ccc(C)cc1NC(=O)Cn1c(=O)c(C(F)(F)F)nc2ccccc21 | 4%
Cc1cc(N2CCCCC2)nc2ccc(NC(=O)/C=C/c3ccc(OC(C)C)cc3)cc12 | 18%
CCN1C(=O)c2ccccc2Sc2ccc(NC(=O)Nc3ccc(Br)c(C)c3)cc21 | 28%
CCc1cccc2c(-c3ccccc3)nc(SCC(=O)Nc3ccccc3OC)nc12 | 7%
CC(=O)N1CCc2cc(S(=O)(=O)NC(CC(C)C)C(=O)NCCc3ccc(C)cc3)ccc21 (centres undefined) | 0%
Cc1ccc2[nH]c(CSc3nnc(NC(=O)COc4ccccc4)s3)cc(=O)c2c1 | 12%
Cc1ccc(S(=O)(=O)N2CCN(Cc3nc4ccc(C)cc4o3)CC2)cc1 | 5%
Cc1ccc(-c2cn(-c3cccc(Cl)c3)c(S(=O)(=O)CC(=O)Nc3cccc(C)c3)n2)cc1 | 12%
Cc1cccc2sc(N(Cc3cccnc3)C(=O)c3ccco3)nc12 | -1%
Cc1ccc(C)c(Cn2c(=O)cc(C)c3c(C)nn(C)c32)c1 | 0%
Cc1nc2nc(SCc3ccc(F)cc3Cl)nn2c(C)c1Cc1ccccc1 | -18%
O=C(Nc1cccc(C(F)(F)F)c1)Nc1cccs1 | u
CC(=O)Nc1nonc1-c1nnc(SCC(=O)Nc2cccc(F)c2)n1-c1ccccc1 | -3%
COc1cc(Cl)c(C)cc1NC(=O)c1cnc(N2CCOCC2)c2ccccc12 | 1%
Cc1ccc(Cc2c(C)nc3nc(SCC(=O)NC(C)c4ccccc4)nn3c2C)cc1 (centres undefined) | 7%
COc1ccccc1C(=O)Nc1ccc2nc(N3CCC(C)CC3)cc(C)c2c1 | u
Cc1ccc2nc(-c3ccc(NC(=O)c4ccc(S(C)(=O)=O)cc4)cc3)sc2c1 | -55%
CCSc1ncc(Cl)c(C(=O)N2CCN(c3ccccc3OC)CC2)n1 | 26%
COC(=O)c1ccc(NC(=O)NCCn2nnc3cc(S(=O)(=O)N(C)C)ccc32)cc1 | 3%
CCc1ccc2occ(CC(=O)Nc3ccccc3C(F)(F)F)c2c1 | -10%
CCOc1ccc(-c2nc(CSCC(=O)N3CCN(c4cccc(C(F)(F)F)c4)CC3)c(C)o2)cc1 | 20%
COc1cccc(C2C(C(=O)Nc3cccnc3)=C(C)Nc3nc(SCc4ccccc4)nn32)c1 (centres undefined) | -4%
CCCc1nn2c(=O)cc(COC(=O)c3cccc(NC(=O)COc4ccccc4C)c3)nc2s1 | 3%
CCOc1ccc(NC(=O)CSc2cn(CCNC(=O)c3ccccc3F)c3ccccc23)cc1 | 3%

# Overlap with the part before: six compounds; new compounds follow.
canonical_smiles | miR-21 reporter
COC(=O)c1ccc(NC(=O)NCCn2nnc3cc(S(=O)(=O)N(C)C)ccc32)cc1 | 3%
CCc1ccc2occ(CC(=O)Nc3ccccc3C(F)(F)F)c2c1 | -10%
CCOc1ccc(-c2nc(CSCC(=O)N3CCN(c4cccc(C(F)(F)F)c4)CC3)c(C)o2)cc1 | 20%
COc1cccc(C2C(C(=O)Nc3cccnc3)=C(C)Nc3nc(SCc4ccccc4)nn32)c1 (centres undefined) | -4%
CCCc1nn2c(=O)cc(COC(=O)c3cccc(NC(=O)COc4ccccc4C)c3)nc2s1 | 3%
CCOc1ccc(NC(=O)CSc2cn(CCNC(=O)c3ccccc3F)c3ccccc23)cc1 | 3%
CCCOc1ccccc1C1Oc2nc(SC)nnc2-c2ccccc2N1C(C)=O (centres undefined) | -1%
Cc1cc(C)cc(NC(=O)C2CCCN2S(=O)(=O)c2ccc3c(c2)CCCC(=O)N3)c1 (centres undefined) | -2%
O=C(Cn1c(=O)n(-c2ccc(F)cc2)c(=O)c2sc3ccccc3c21)N1CCCC1 | -4%
CCOc1ccc(-c2cc(C(=O)N3CCN(S(=O)(=O)c4cc(Cl)ccc4OC)CC3)[nH]n2)cc1 | 24%
CCc1cccc(NC(=O)CSc2n[nH]c(-c3ccccc3Cl)n2)c1 | 29%
Cc1ccc(CCNC(=O)c2cc3c(=O)oc4ccccc4c3s2)cc1 | 1%
CCc1ccc(S(=O)(=O)c2nnn3c2nc(NC(C)C)c2cc(Cl)ccc23)cc1 | 2%
CCn1cc(C(=O)Nc2cccc(Cl)c2)c2cc(OC)c(OC)cc2c1=O | 27%
COc1ccc(CC(=O)Nc2nnc3n2CCS3)cc1 | 1%
CCCCNC(=O)c1ccc2c(=O)n(-c3ccccc3)c(=O)[nH]c2c1 | 8%
Cn1c(=O)oc2cc(S(=O)(=O)N3CCC(C(=O)N4CCN(c5cccc(Cl)c5)CC4)CC3)ccc21 | -9%
Cc1ccc2cc3cc(C(=O)Nc4ccc(F)cc4Cl)oc3nc2c1 | 1%

# Four records drawn at random from those above, as already listed:
canonical_smiles | miR-21 reporter
CCCCNC(=O)c1ccc2c(=O)n(-c3ccccc3)c(=O)[nH]c2c1 | 8%
CCc1cccc(NC(=O)CSc2n[nH]c(-c3ccccc3Cl)n2)c1 | 29%
Cn1c(=O)oc2cc(S(=O)(=O)N3CCC(C(=O)N4CCN(c5cccc(Cl)c5)CC4)CC3)ccc21 | -9%
CCn1cc(C(=O)Nc2cccc(Cl)c2)c2cc(OC)c(OC)cc2c1=O | 27%

# Next part
canonical_smiles | miR-21 reporter
Cn1ncc(C(=O)N2CCN(c3ccccc3)CC2)c1C1CCN(C(=O)OC(C)(C)C)CC1 | 4%
Cc1nnc(SCc2ccc(Cl)cc2)c2cc3occc3n12 | -33%
CCOc1ccccc1C1N=C(N)Nc2nc3ccccc3n21 (centres undefined) | -3%
CC1CCN(c2oc(-c3ccc(COc4ccccc4)o3)nc2C#N)CC1 | -14%
COc1cc(Nc2ncc3c(n2)CCN(Cc2cccc(C)c2)C3)cc(OC)c1 | 21%
CCc1ccc(CNC(=O)CCCN2C(=O)c3cccnc3Oc3ccc(Cl)cc32)cc1 | 7%
CCCCC(=O)N1CCN(c2nc3c(C)c(C)ccc3s2)CC1 | 1%
Cc1noc(C)c1S(=O)(=O)N(CC(=O)Nc1ccc(C(F)(F)F)cc1)c1ccc(C(C)C)cc1 | 15%
COc1ccc(C)cc1NC(=O)Nc1ccccc1OCc1cc(=O)n2ccccc2n1 | 5%
Cc1ccccc1NC(=O)Cn1cc(S(=O)(=O)c2ccccc2)c(=O)c2ccccc21 | 2%
COC(=O)c1ccc(C2Nc3c(C)cccc3-c3cc(C)nn32)cc1 (centres undefined) | 0%
CCc1ccccc1NC(=O)COC(=O)c1cn(CC)c2nc(C)ccc2c1=O | -1%
CCOC(=O)c1cnc(N2CCN(c3ccc(C)cc3C)CC2)c2ccccc12 | -12%
CCOc1ccc(-c2cn3c(n2)sc2cc(C(=O)NCCCc4ccccc4)ccc23)cc1 | -1%
COc1ccc(CNC(=O)c2cc(-c3ccc(OC)cc3)on2)cc1 | -27%
COC(=O)c1cc2occc2n1Cc1nc(-c2ccc(C)cc2)oc1C | 18%
O=C(CSC1=Nc2ccccc2N=C(c2ccc(F)cc2)C1)NCc1ccc(F)cc1 | 0%

# Compound activity (PubChem BioAssay)
